# Beta apoptosis: inhibitors of cytokine-induced beta cell apoptosis, primary screen, luminescence. AID 435005, 2010. protection from apoptosis, % (concentration not given with the values). 0.8% of 300,000 active. INS-1E cytokine-induced death, ATP luminescence, 48 h; percent of positive-control rescue, neutral wells zero;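 active = all replicates at 75% or more, or half of them and the mean; inconclusive = half reach 75% but not the mean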;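 note: 0% = cytokine-treated negative control wells and 100% = positive control rescue; higher means more ATP so stronger rescue from cytokine killing; wells of about 40 µL received 100 nL stock; the first replicate is given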
# ALR H2O2 inh: inhibitors of human ALR sulfhydryl oxidase, primary screen, biochemical, H2O2 detection, HRP-luminol luminescence, single point. FAD-linked sulfhydryl oxidase ALR (Homo sapiens), P55789. purified ALR, DTT oxidation. inhibition, % (concentration not given with the values). 3.8% of 290,000 active;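 active = mean and each replicate at 75% or more; inconclusive = only one of the two met; inactive = neither met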;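 note: stock transfer was 7.5 nL into about 7.5 µL; 0% = neutral wells and 100% = wells with inactivated enzyme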
# Target sequence (P55789 whole entry, looked up): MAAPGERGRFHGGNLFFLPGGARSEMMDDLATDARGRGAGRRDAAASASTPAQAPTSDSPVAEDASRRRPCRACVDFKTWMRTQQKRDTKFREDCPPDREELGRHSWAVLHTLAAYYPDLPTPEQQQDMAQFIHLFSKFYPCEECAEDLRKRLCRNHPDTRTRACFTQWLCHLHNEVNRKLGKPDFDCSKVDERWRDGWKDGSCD
# AF4-AF9 inh: inhibitors of AF4 peptide binding to AF9, primary screen, biochemical, AlphaScreen, biotin-AF4 peptide, FLAG-AF9, single point | Protein AF-9 (Homo sapiens), P42568 | 0.47% of 350,000 active | AID 651704, 2012 | inhibition, % at 10 µM;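 active = every replicate reaching a set inhibition limit, whatever the replicate mean, cut at about 25% in these data; inconclusive = mean inhibition reaches that limit but some replicates miss it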;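 note: 0% = plate neutral control median and 100% = total signal loss; the record names both 10 and 1 µM as test concentration; the first replicate is given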
# Target sequence (P42568 whole entry, looked up): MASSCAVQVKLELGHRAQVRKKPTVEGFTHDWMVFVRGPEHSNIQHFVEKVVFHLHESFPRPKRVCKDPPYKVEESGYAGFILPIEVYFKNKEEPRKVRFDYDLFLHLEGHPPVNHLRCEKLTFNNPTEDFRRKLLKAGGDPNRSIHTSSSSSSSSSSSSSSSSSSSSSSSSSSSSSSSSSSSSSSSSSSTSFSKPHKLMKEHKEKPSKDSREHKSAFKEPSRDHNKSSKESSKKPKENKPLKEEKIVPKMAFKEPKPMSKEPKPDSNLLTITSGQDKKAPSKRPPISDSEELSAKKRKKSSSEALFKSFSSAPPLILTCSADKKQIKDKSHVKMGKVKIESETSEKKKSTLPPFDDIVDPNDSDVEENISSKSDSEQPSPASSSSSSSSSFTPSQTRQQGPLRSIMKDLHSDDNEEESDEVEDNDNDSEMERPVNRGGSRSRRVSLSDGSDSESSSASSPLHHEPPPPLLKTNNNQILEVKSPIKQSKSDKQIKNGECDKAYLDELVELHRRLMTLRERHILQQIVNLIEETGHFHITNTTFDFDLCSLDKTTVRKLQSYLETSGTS
# rRNA inh HTS: reduced GFP signal of wild-type E. coli, primary screen, bacterial rRNA inhibitor project, GFP/RFP fluorescence, OD600, single point; 1.6% of 350,000 active; GFP signal change (wild-type ribosome), % (test concentration not listed); E. coli WT GFP vs humanized-ribosome RFP mutants, 24 h; hits give low values; DMSO median 0, no signal -100;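 active = significant combined selectivity score with lowered wild-type GFP, culture density cut under 30%, mutant RFP and density less affected; inactive = any of these conditions unmet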; note: one replicate is shown; some compounds called inactive have numbers as strong as hits
# FGF22 binding: binders of human FGF22 protein, primary screen, FGF22 synaptogenesis inhibitor project, biophysical, thermal shift, single point. Fibroblast growth factor 22 (Homo sapiens), Q9HCT0. 1.5% of 340,000 active. recombinant FGF22 thermal shift, SYPRO orange fluorescence; percent of sucrose octasulfate shift, DMSO zero. calls only at 9.99 µM;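 active = melting point raised past a set limit in the mean and every replicate; inconclusive = no clear call; three in four hits are not shown here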
# Target sequence (Q9HCT0 whole entry, looked up): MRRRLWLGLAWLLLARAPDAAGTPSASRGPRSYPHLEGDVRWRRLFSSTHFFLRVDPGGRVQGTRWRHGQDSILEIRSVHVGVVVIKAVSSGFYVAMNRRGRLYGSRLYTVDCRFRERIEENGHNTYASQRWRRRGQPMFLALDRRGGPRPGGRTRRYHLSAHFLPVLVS
# T cruzi inh: inhibitors of intracellular T. cruzi growth, primary screen, luminescence, NIH3T3 host cells | T. cruzi beta-gal in NIH3T3, 90 h | 1.4% of 300,000 active | inhibition, % (no concentration beside the values);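 active = mean inhibition across valid replicates above about 55%, limit read from the data; inconclusive = mean below that limit but half or more replicates reach it; inactive = mean below it, under half of replicates reach it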;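 note: signal also drops with host cell toxicity which is not excluded here; 0% = plate median of DMSO wells and 100% = zero luminescence signal; higher percent means less beta-gal luminescence so fewer parasites; stock transfer was 50 nL into about 50 µL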
# RanGTP-Impb inh: inhibitors of RanGTP-importin-beta interaction, primary screen, biochemical, FRET, CFP-Ran, YFP-importin-beta, homogeneous; 1.1% of 300,000 active; cell-free CFP-Ran/YFP-importin-beta FRET ratio; inhibition, % (no concentration beside the values); Ran GTPase (GTP-bound) - importin-beta complex;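 active = most replicates above 15%; inconclusive = exactly half above 15%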;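 note: 0% = DMSO wells and 100% = Ran loaded with GDP instead of GTP; wells of about 40 µL received 100 nL stock; the first replicate is given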
# Calb FLC: C. albicans growth inhibition with fluconazole, primary screen, CaCi-2 strain, Alamar Blue fluorescence; growth inhibition, % (concentration not given with the values); AID 1979, 2009; C. albicans CaCi-2 (fluconazole-resistant clinical isolate) + fluconazole, 48 h; 0.57% of 300,000 active;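 active = most replicates above 75%; inconclusive = exactly half above 75%; inactive = most below 75%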;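 note: all wells also contain fluconazole at 8 µg/ml as a sub-toxic cotreatment; 0% = median of DMSO wells and 100% = median of geldanamycin control wells; wells of about 8 µL received 7.5 nL stock; the first replicate is given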
# rRNA inh HTS OD600: also measured in rRNA inh HTS; calls as there; OD600 change, %; measured here: OD600 growth;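 optical density of the mix in the first replicate; 0 = DMSO median and -100 = no signal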
# rRNA inh HTS RFP: recorded beside rRNA inh HTS, whose call it bears; RFP signal change, %; measured here: RFP humanized mutant strains;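 first replicate; 0 = DMSO median and -100 = no signal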
# Starred values were filed as active, the others as inactive; i = inactive; ? = inconclusive; · = no result given; & = joins results of further samples. A portion of the library (hit frequency here may not be typical).
SMILES,Beta apoptosis,ALR H2O2 inh,AF4-AF9 inh,rRNA inh HTS,rRNA inh HTS OD600,rRNA inh HTS RFP,FGF22 binding,T cruzi inh,RanGTP-Impb inh,Calb FLC
Cc1csc(=O)n1CC(=O)OCC(=O)Nc1ccc(F)c(F)c1,-11,6,0.1,14,12,-1.7,i,-9,-3.0,0
COc1cccc(C(=O)CC(=O)C(=O)Nc2cc(OC)c(OC)c(OC)c2)c1,-12,-28,·,·,·,·,·,-7,0.3,-1
Oc1ccccc1CN1CCN(C(O)(c2ccccc2)c2ccccc2)CC1,1,7,3.9,-42,-76,-8.3,i,-57,-0.5,-4
Cc1ccc(NS(=O)(=O)c2ccc3c(c2)CCC(=O)N3)cc1,-5,·,1.8&-1.1,-30&1,-25&-1,-3.4&-3.7,i,·,·,·
O=C1c2ccccc2C(=O)N1CSc1nnc(Nc2ccccc2)s1,-5,-2,-0.5,15,15,3.1,i,-7,-2.2,5
O=C(NCCc1ccc(Cl)cc1)c1cc(-c2ccccn2)nc2ccccc12,12,·,-0.9,6,21,1.2,i,26,?,3
O=C(CCS(=O)(=O)c1cccs1)Nc1ccc(C(=O)NCc2ccccc2)cc1,-24,-6,·,·,·,·,·,-3,4.5,-9
COCCCNC(=S)NNC(=O)c1cc(-c2cccnc2)nc2ccccc12,3,26,-1.5,0,4,0.9,i,1,3.6,19
COc1ccc(C(=O)NC(=S)N(C)C2CCCCC2)cc1Br,12,2,-1.3,2,0,1.5,i,60*,-0.2,11
Cc1cc(C(C)(C)C)oc1C(=O)N(CC(=O)NC1CCCC1)Cc1ccccc1,·,-1,·,·,·,·,·,21,1.0,5
NC(=O)Cn1nnc(-c2ccc(CN3CCCCC3)cc2)n1,4,-12,-1.0,9,6,1.7,i,6,1.6,7
O=C(NCCCN1CCCC1=O)c1cccc(S(=O)(=O)NCc2ccccc2)c1,5,0,-0.2,4,0,-1.9,i,5,-2.3,-3
CCOC(=O)N1CCN(C(=O)CSc2nnc(-c3c[nH]c4ccccc34)n2CCOC)CC1,0,-42,·,·,·,·,·,3,-2.6,-14
CCc1cccc(C)c1NC(=O)CSc1nc(C)c(C)o1,-5,-11,-1.9,-4,-8,-3.5,i,-13,1.0,-9
COC(=O)CCCCNC(=O)Nc1ccccc1,-1,-2,-0.4,12,12,0.0,i,-9,0.4,-13
CC(c1ccccc1)C1CC(=O)N(c2cc(Cl)ccn2)C1=O (stereo not drawn),-3,4,4.0,-29,-40,-6.1,i,-6,-1.6,2
CN1CCN(NC(=S)NC2CCCCC2)CC1,4,5,·,·,·,·,·,1,0.3,-10
CCOC(=O)C(C)Sc1nc2c(c(=O)[nH]c(=O)n2C)n1C/C=C(/C)Cl (stereo not drawn),0,-10,·,·,·,·,·,-9,4.2,5
COc1ccc(NC(=O)Cc2c(SC)c3ccccc3n2Cc2ccccc2)cc1,23,·,·,·,·,·,·,20,4.4,-3
S=C(c1ccc(-c2ccc(Br)cc2)o1)N1CCOCC1,-13,-3,3.7,-30*,-8.9*,2.1*,i,·,-1.3,-3
O=C(NNC(=O)c1cc(-c2ccc(Cl)c(Cl)c2)nc2ccccc12)Nc1ccccc1,9,-8,·,·,·,·,·,43,-2.3,15
Clc1ccc(CSc2ccc(-c3ccccn3)nn2)cc1,84*,-19,2.8,10,3,-0.3,i,68*,3.8,-21
COc1cccc(-c2nc(C(=O)NCCCN3CCOCC3)cc3c2[nH]c2ccccc23)c1,·,-15,1.8,·,·,·,i,28,7.3,15
CC1=C(C(=O)OCCOc2ccccc2)C(c2ccc(C)o2)C2=C(CC(C)(C)CC2=O)N1 (stereo not drawn),3,-1,·,·,·,·,·,25,4.4,-3
COc1ccccc1NC(=O)c1ccc(NS(=O)(=O)c2cccc3cccnc23)cc1,-4,·,-6.3,3,7,0.0,i,6,0.3,-1

# (more compounds)
SMILES,Beta apoptosis,ALR H2O2 inh,AF4-AF9 inh,rRNA inh HTS,rRNA inh HTS OD600,rRNA inh HTS RFP,FGF22 binding,T cruzi inh,RanGTP-Impb inh,Calb FLC
Cn1cc(CNC(=O)C2CCCCC2)cn1,-10,0,-5.2,11,15,-11,i,-7,-0.4,-22
CCOc1cc(C(=O)NCC(C)CN(C)C)cc(OCC)c1OCC (stereo not drawn),·,-7,·,·,·,·,·,12,-2.1,28
CCOC(=O)c1nn(-c2ccc3ccccc3c2)cc1O,0,-5,-2.4,-15,-13,0.5,i,-9,2.4,-21
CC(=O)Nc1ccc(Nc2ncnc(N)c2[N+](=O)[O-])cc1,-18,-5,50*,3,11,-1.4,i,-31,2.1,-7
CC(Sc1ccccc1)C(=O)N1CCN(S(=O)(=O)c2ccccc2C(F)(F)F)CC1 (stereo not drawn),0,-11,-0.9,0,-14,5.8,i,11,3.3,0
O=C(N/N=C\c1cccnc1)c1ccc(Cl)cc1Cl,3,-13,·,·,·,·,·,-3,-3.2,-3
COC(=O)c1cn(C(=O)c2cc(OC)cc(OC)c2)c2ccccc12,2,12,-2.7,5,8,-0.4,i,-19,1.5,12
Cc1ccccc1CC(=O)NCCN1CCOCC1,-16,-5,-9.9,18,15,-0.7,i,-15,6.0,-7
CCc1nnc(NC(=O)CSc2nnc(Cc3ccccc3)n2-c2ccccc2)s1,-5,2,·,·,·,·,·,11,-1.7,-3
Cc1cccc(CCNC(=O)C2CCN(S(=O)(=O)c3c(C)nn(C)c3C)CC2)c1,-3,-19,·,·,·,·,·,-12,-1.8,-5
O=C(O)c1cnc(-c2ccccc2)nc1Sc1ccccc1,·,1,·,·,·,·,·,-6,-2.2,30
CN(C)CCC1Sc2ccccc2Oc2ccccc21 (stereo not drawn),-15,0,·,·,·,·,·,26,-0.6,-1
Cc1ccc(C(=O)N/N=C\c2ccc(OC(=O)c3cccc(F)c3)cc2)cn1,·,2,0.2,7,5,1.1,i,4,?,-2
COc1ccc(C(C(=O)NC2CCCC2)N(Cc2ccccc2)C(=O)c2snc(C(N)=O)c2N)cc1OC (stereo not drawn),4,·,2.1,9,19,2.2,i,-12,1.9,0
CC(Sc1ccc(S(=O)(=O)N2CCOCC2)cn1)C(=O)Nc1ccc(Cl)cc1Cl (stereo not drawn),11,·,-0.2,-5,-9,5.2,i,·,·,·
CCOC(=O)N1CCC(N(CCN(C)C)C(=S)Nc2ccc(Oc3ccccc3)cc2)CC1,·,·,-8.1,6,-5,11,i,4,-1.3,-7
CCN(c1nc(C)cc(OC)n1)S(=O)(=O)c1ccccc1,-4,-13,·,·,·,·,·,17,1.7,42
COC(=O)c1ccc(NC(=O)CCc2nnc3ccc(N4CCC5(CC4)OCCO5)nn23)cc1,-1,-5,-0.9,4,5,-1.2,i,13,1.7,-3
CCN(C(=O)COC(=O)c1cc([N+](=O)[O-])ccc1N1CCOCC1)C1CCCCC1,-2,·,-1.5,-9,1,5.7,i,5,1.3,-10
CC(C)CNC(=O)CSc1nnc(-c2cccc(S(=O)(=O)N3CCCCC3)c2)o1,·,-8,·,·,·,·,·,9,?,-1
CCOC(=O)CC1C(=O)NC2CCCCC2N1C(=O)Nc1ccc(Cl)cc1 (stereo not drawn),-4,0,·,·,·,·,·,-11,-2.0,-1
COc1ccc(Cl)cc1-n1c(=S)sc2c(=O)[nH]c(SCC(=O)C(C)(C)C)nc21,·,·,4.5,-24*,-6.2*,-8.9*,i,5,2.3,45
Cc1cccc(CCNC(=O)COc2cc(=O)n(C)c3ccccc23)c1,1,-20,-1.0,-2,-1,-1.0,i,8,7.7,3
CC(NC(=O)C1CCC(CNS(=O)(=O)c2ccc3c(c2)C(C)(C)C(=O)N3C)CC1)c1ccccc1 (stereo not drawn),3,-2,-1.6,4,3,-1.0,i,-14,2.5,4
CC1(C)CC(=O)c2c(n(-c3cccc4ccccc34)ccc2=O)C1,2,-23,·,·,·,·,·,12,1.8,2

# The listing continues:
SMILES,Beta apoptosis,ALR H2O2 inh,AF4-AF9 inh,rRNA inh HTS,rRNA inh HTS OD600,rRNA inh HTS RFP,FGF22 binding,T cruzi inh,RanGTP-Impb inh,Calb FLC
N#Cc1c(NC(=O)C2CC(Cl)=CCC2C(=O)O)sc2c1CCCCC2 (stereo not drawn),-2,3,-1.0,-51,-78,-27,·,2,6.2,15
Cc1ccccc1CNC(=O)C(=O)NCC1OCCCN1S(=O)(=O)c1ccc(F)cc1C (stereo not drawn),0,-6,0.2,-1,3,-1.1,i,4,0.2,3
O=S(=O)(c1ccc(NC(=S)NN=C(C2CC2)C2CC2)cc1)N1CCOCC1,-2,·,-5.0,0,-1,2.3,i,-8,0.2,22
Cc1sc2ncnc(-n3cnc4ccccc43)c2c1C,-3,-1,·,1,0,-0.8,·,1,-3.1,-14
CCCOC(=O)c1ccc(Oc2c(-c3ccc(OC)cc3O)n[nH]c2C)cc1,-7,-4,·,-20,-34,12,·,-12,-3.2,-2
O=C1CC(Cc2ccccc2)C(=O)N1c1ccc(Cl)cn1 (stereo not drawn),-4,-6,·,·,·,·,·,5,1.6,3
CCCCCC/C=N/Nc1nnc(Cc2ccccc2)c(=O)[nH]1,·,·,0.2,6,0,-2.0,i,0,-1.1,-6
COc1cc(OC)cc(C(=O)NNC(=O)c2ccccc2Br)c1,0,·,·,·,·,·,·,-16,0.7,-8
COc1ccc2[nH]c3c(c2c1)CCN1C(=O)N([C@@H](C)C(=O)NC2CCCCC2C)C(=O)[C@]31C (stereo partly drawn),·,-8,9.2,·,·,·,i,5,?,14
COc1ccc(CCNc2ccc(N3C(=O)CC(C)C3=O)cc2[N+](=O)[O-])cc1 (stereo not drawn),-6,-7,-6.7,0,-6,1.2,i,1,-0.4,-10
Cc1ccc(S(=O)(=O)NNC(=O)c2ccc(NC(=O)C3CC3)cc2)cc1,2,62,-2.6,19,22,2.6,i,·,·,111*
O=C(NCc1cccnc1)C1CC(c2ccccc2O)=NO1 (stereo not drawn),3,22,-6.7,15,16,-0.8,i,-19,0.0,0
CC1CCc2nn(CC(=O)NCCCN3CCOCC3)cc2C1 (stereo not drawn),-8,-2,3.1,4,12,-2.2,i,-3,-2.6,-4
COc1ccccc1C(CNC(=O)c1cccc(S(=O)(=O)NCc2ccccc2)c1)N(C)C (stereo not drawn),0,15,-14,11,14,0.6,i,9,5.7,-6
COc1cc2c(cc1OC)CN(C(=O)c1oc3ccccc3c1C)CC2,5,·,0.6,-1,5,-2.9,i,16,2.7,-11
CCCCCCOc1ccc(N2C(=O)CC(N(CCc3ccc(S(N)(=O)=O)cc3)C(C)=O)C2=O)cc1 (stereo not drawn),0,-4,-2.1,-20,-21,-2.2,i,-2,1.0,-1
